# Assay outcomes as filed in PubChem.
# HPGD block: blocks human HPGD enzyme activity; P15428; purified HPGD, NADH fluorescence kinetic, PGE2 substrate; Potency, µM, without a hit: at the top dose activity change, negative = inhibition, most hits filed as inhibitors; actives 4.3% (n = 150,000); AID 894; active = well fitted inhibition curve with a large enough effect (not every such curve was filed as active); inconclusive = small, poorly fitted or top-dose-only effect, or another doubt; inactive = no such curve, though single readings can be large or run the other way;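 also: top concentration of the series not given in the record; plate controls included wells without enzyme; inactives centre near -10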
# Target sequence (P15428 whole entry, looked up): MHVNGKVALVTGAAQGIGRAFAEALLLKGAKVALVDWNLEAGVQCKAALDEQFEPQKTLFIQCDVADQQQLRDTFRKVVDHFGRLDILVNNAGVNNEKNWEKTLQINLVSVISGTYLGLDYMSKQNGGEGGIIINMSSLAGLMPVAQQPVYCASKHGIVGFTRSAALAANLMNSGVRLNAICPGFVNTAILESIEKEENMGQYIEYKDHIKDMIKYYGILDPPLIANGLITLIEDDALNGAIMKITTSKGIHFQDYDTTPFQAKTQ
#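 NADH formation kinetics: reaction with 30 uM PGE2 and 1 mM NAD+ (final), 20 nM enzyme, Tris-HCl pH 8 with Tween 20, after 15 min compound preincubation at room temperature. Fluorescence change, last versus first of five reads.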
# An asterisk follows results filed as active; u = inconclusive; & = joins results of further samples; [ ] = dose if it differs, or a comment. % is scaled to controls: 0 for no effect and ±100 for the full control effect; potency is read from the fitted curve at half-maximal effect. An excerpt; rates above refer to the full screens.
CCS(=O)(=O)N1Cc2ccccc2CC1C(=O)Nc1nc2ccccc2s1 (stereo unspecified)
- HPGD block: -3%

Nc1nc(CN2CCN(c3ccc(F)cc3)CC2)nc(N2CCCc3ccccc32)n1
- HPGD block: -8%

COc1ccc(C(=O)N/C(=C\c2ccco2)C(=O)NCCCn2ccnc2)cc1
- HPGD block: -15%

O=C1C=CC(=O)C2=C1C1c3ccccc3C2c2ccccc21
- HPGD block: 1.1µM*

COC(=O)c1cc(C(=O)OC)cc(N2C(=O)CC(Sc3nc(C)cc(C)n3)C2=O)c1 (stereo unspecified)
- HPGD block: -9%

O=C(/C=C/c1cccc(Cl)c1)Nc1ncccn1
- HPGD block: -16%

O=C(CSc1nc2c(cnn2-c2ccccc2)c(=O)[nH]1)N1CCOCC1
- HPGD block: -13%

CC(C)NC(=O)c1n[nH]c(=O)c2ccccc12
- HPGD block: -8%

COc1ccccc1NC(=S)NCc1cccnc1
- HPGD block: -14%

COc1ccc(C2C=C(C34CC5CC(CC(C5)C3)C4)NC(=S)N2)cc1 (stereo unspecified)
- HPGD block: 0%

C=C/C(C)=C/[C@@]1(C)SC(=O)C(C)=C1O
- HPGD block: -13%

CC1CCN(C(=O)CN(CCc2ccccc2)S(C)(=O)=O)CC1
- HPGD block: -2%

Cc1cnc(C(=O)OCC(=O)Nc2cccc(Cl)c2)cn1
- HPGD block: -18%

O=S(=O)(C/C(=C/CO)S(=O)(=O)c1ccccc1)c1ccccc1
- HPGD block: -5%

CCOC(=O)c1c(NC(=O)CN2C(=O)NC(C)(c3ccc(Cl)cc3)C2=O)sc(C(=O)NC)c1C (stereo unspecified)
- HPGD block: -11%

# Rewritten with values ahead of the structure: 3 of the compounds above.
HPGD block | Structure
-11% | CCOC(=O)c1c(NC(=O)CN2C(=O)NC(C)(c3ccc(Cl)cc3)C2=O)sc(C(=O)NC)c1C (stereo unspecified)
-15% | COc1ccc(C(=O)N/C(=C\c2ccco2)C(=O)NCCCn2ccnc2)cc1
-9% | COC(=O)c1cc(C(=O)OC)cc(N2C(=O)CC(Sc3nc(C)cc(C)n3)C2=O)c1 (stereo unspecified)

# More results follow.
Cc1cccc(C(=O)Oc2ccccc2-c2nnco2)c1
- HPGD block: -12%

O=C(CSCC(=O)OCn1nnc2ccccc2c1=O)Nc1ccc(Cl)cc1
- HPGD block: -6%

Cc1c(NC(=O)/C(=C\c2ccccc2)NC(=O)c2ccccc2)c(=O)n(-c2ccccc2)n1C
- HPGD block: -12%

Cc1ccc(C(C2=C(O)CC(C)(C)CC2=O)C2C(=O)CC(C)(C)CC2=O)s1 (stereo unspecified)
- HPGD block: 3.2µM*

COCCN1CCc2[nH]c(=S)[nH]c(=O)c2C1
- HPGD block: -16%

COC(=O)c1ccc(C2NC(=O)NC(C)=C2C(=O)N(C)C)cc1 (stereo unspecified)
- HPGD block: -16%

Cc1cc(N)c2ccccc2[n+]1CCCCCCCCCC[n+]1c(C)cc(N)c2ccccc21
- HPGD block: -14%&7%&2%&-1%

COc1ccccc1N1CCN(C(=O)c2ccc(Br)s2)CC1
- HPGD block: -13%

Cc1cccc(CN2CCN(CC(=O)NCCCN3CCN(c4ccc(F)cc4)CC3)C2=O)c1
- HPGD block: -2%

O=C(N/N=C/c1ccc(Cl)cc1)Nc1ccccc1
- HPGD block: -12%

O=C(/C=C/c1cccs1)Nc1ccc(N2CCOCC2)c(S(=O)(=O)Nc2cc(Cl)ccc2Cl)c1
- HPGD block: u

COC(=O)C1=C(C)N(C)C(C)=C(C(=O)OC)C1c1ccc(Cl)cc1
- HPGD block: u

COc1cc(/C=C2\SC(=Nc3c(C)n(C)n(-c4ccccc4)c3=O)NC2=O)ccc1O
- HPGD block: 14µM*

CC(C)CC(=O)Nc1ccc(Oc2ccc(NC(=O)CC(C)C)cc2)cc1
- HPGD block: -2%

O=C(Nc1ncccc1O)c1cccc(S(=O)(=O)N2CCc3ccccc32)c1
- HPGD block: -14%

# 5 of these compounds in a different format:
HPGD block | Compound
-14% | O=C(Nc1ncccc1O)c1cccc(S(=O)(=O)N2CCc3ccccc32)c1
14µM* | COc1cc(/C=C2\SC(=Nc3c(C)n(C)n(-c4ccccc4)c3=O)NC2=O)ccc1O
u | COC(=O)C1=C(C)N(C)C(C)=C(C(=O)OC)C1c1ccc(Cl)cc1
-2% | Cc1cccc(CN2CCN(CC(=O)NCCCN3CCN(c4ccc(F)cc4)CC3)C2=O)c1
-6% | O=C(CSCC(=O)OCn1nnc2ccccc2c1=O)Nc1ccc(Cl)cc1

# Continuation.
CCn1c(O)c(N=NC(=O)c2cccc(S(=O)(=O)N3CCCCC3)c2)c2ccccc21
- HPGD block: -14%

CC(=O)Nc1cccc(Oc2ncnc3scc(-c4ccccc4)c23)c1
- HPGD block: u

O=C(NCCC1=CCCCC1)C(=O)NCc1ccccc1
- HPGD block: -4%

CCCOC(=O)C1[C@H]2C(=O)N(CC3CCCO3)C[C@]23C=C[C@H]1O3 (stereo partly specified)
- HPGD block: -8%

O=C1NCCNC1(c1c[nH]c2ccccc12)C(F)(F)F (stereo unspecified)
- HPGD block: -18%

O=c1c(CCc2ccccc2)nc2cnc(N3CCOCC3)nc2n1Cc1ccc(F)cc1
- HPGD block: -15%

OCCN[C@@H]1c2cc(Cl)ccc2-c2c(Cl)cc(Cl)cc21
- HPGD block: 4%

CCC(C)NC(=O)CSc1nc2scc(-c3ccccc3)c2c(=O)[nH]1 (stereo unspecified)
- HPGD block: -4%

O=C1CC[C@H](NC(=O)c2ccccc2)C(=O)N1
- HPGD block: -11%

C/C(Nc1ccccc1)=C(/C#N)C(N)=O
- HPGD block: -12%

CCN(CC)CCN1C(=O)C(O)=C(C(C)=O)C1c1ccc(OC)c(OC)c1 (stereo unspecified)
- HPGD block: -18%

CCOc1ccc(NC(=O)CSc2nnc(-c3ccncc3)n2CC2CCCO2)cc1 (stereo unspecified)
- HPGD block: -19%

CCCn1c(C)nc2c(NCCN3CCOCC3)nc(C)nc21
- HPGD block: -11%

COc1ccc(C2C(C(=O)c3sc(C)nc3C)=C(O)C(=O)N2CCN(C)C)cc1 (stereo unspecified)
- HPGD block: u

CCOC(=O)c1ccc(NC(=O)C(=O)NCc2ccncc2)cc1
- HPGD block: -28%

# Sorted by count of non-hydrogen atoms (ascending): 3 of the compounds above
CCCn1c(C)nc2c(NCCN3CCOCC3)nc(C)nc21
- HPGD block: -11%

CC(=O)Nc1cccc(Oc2ncnc3scc(-c4ccccc4)c23)c1
- HPGD block: u

CCN(CC)CCN1C(=O)C(O)=C(C(C)=O)C1c1ccc(OC)c(OC)c1 (stereo unspecified)
- HPGD block: -18%

# (continued)
CCC1(C(=O)OC)NC(c2ccccc2OC)C2C(=O)N(C)C(=O)C21 (stereo unspecified)
- HPGD block: -1%

Cn1c(=O)c(-c2ccccc2)nc2cnc(Oc3ccccc3)nc21
- HPGD block: -18%

CCN(CC)c1ccc(NC(=O)Cn2ncc3c(C)n(Cc4ccccc4F)c(C)c3c2=O)c(C)c1
- HPGD block: -21%

CC(Sc1sc(=S)sc1SC(C)C(=O)O)C(=O)O (stereo unspecified)
- HPGD block: -16%

CN(CC(=O)NC1CCCCCC1)S(=O)(=O)c1ccc2c(c1)n(C)c(=O)c(=O)n2C
- HPGD block: -12%

CC(C)c1cc(C(F)(F)F)n2nc(C(=O)O)cc2n1
- HPGD block: -4%

CCc1ccccc1NC(=O)Cn1cccc1C1=NC(c2ccccc2)CO1 (stereo unspecified)
- HPGD block: -8%

Cc1ccc(C(=O)Nc2ccc(F)cc2F)o1
- HPGD block: -4%

O=C(/C=C/c1ccc(O)cc1)c1ccccc1O
- HPGD block: u

COc1cc(C(=O)O/N=C(\N)c2ccc([N+](=O)[O-])cc2)cc(OC)c1OC
- HPGD block: -7%

Cc1cc2cc3c(cc2nc1SCc1ccc(C(=O)O)cc1)OCCO3
- HPGD block: u

C/C(=N\OCC(=O)Nn1c(C)nc2ccccc2c1=O)c1ccccc1
- HPGD block: 0%

CCN(CC)CCCN1C(=O)C(=O)/C(=C(/O)c2ccc(C)cc2)C1c1ccccn1 (stereo unspecified)
- HPGD block: -17%

Cc1ccc(S(=O)(=O)N2CCC(C(=O)N3CCC[C@H]3C(=O)NCc3ccco3)CC2)cc1
- HPGD block: -12%

CCCC(=O)Nc1nnc(Sc2ccc(N(C)C)cc2)s1
- HPGD block: -3%

# The list continues.
canonical_smiles,HPGD block
O=C(CSc1nccc(=O)[nH]1)Nc1ccc(Br)c(Cl)c1,32µM*
O=c1ccc2cc3c([nH]c4ccc(Br)cc43)oc-2c1O,16µM*
CCOc1ccc(-c2nc(C#N)c(NCc3ccc4c(c3)OCO4)o2)cc1,u
Cc1cccc(C(=O)c2cnc3ccccc3c2-c2ccccc2)c1,u
Clc1ccc(OCc2nn3c(C4CCCCC4)nnc3s2)cc1,20µM*
NC(=O)/C=C\C(=O)Nc1cccc(C(F)(F)F)c1,-26%
COc1ccc(S(=O)(=O)N(CCc2ccccc2)CC(=O)NCCCO)cc1,-5%
CC(Oc1ccc(-c2ccccc2)c(F)c1)c1ccn(S(=O)(=O)c2ccc(Cl)cc2)n1 (stereo unspecified),-6%
O=C(Nc1cccc(S(=O)(=O)N2CCOCC2)c1)c1cc2c(s1)CCC2,-9%
O=C(Nc1ccc(S(=O)(=O)NCCc2ccccc2)cc1)c1ccc(Br)o1,-13%
O=c1[nH]c2ccccc2nc1/C=C(\O)C(F)F,u
COc1cccc2sc(Nc3nc(-c4cc5ccccc5oc4=O)cs3)nc12,u
CCOc1cccc(CNn2cnnc2)c1OCc1ccccc1Cl,9%
CCCCSc1nnc(CNC(=O)C23CC4CC(CC(C4)C2)C3)n1Cc1ccccc1,-8%
O=C(C1CC1)N1CCN=C1SCc1ccccc1Cl,-5%
O=C(CSc1nc2ccccc2nc1SCC(=O)N1CCOCC1)N1CCOCC1,-20%
O=[N+]([O-])c1ncn(Cc2ccccc2Cl)n1,-11%
O=C(O)CC(c1cccc(Cl)c1)n1cccc1 (stereo unspecified),-13%
O=C(Nc1ccc2c(c1)OCO2)N1CCN(C/C=C/c2ccccc2)CC1,-1%
COc1ccc(-c2cc(C(=O)NN)[nH]n2)cc1,-6%
CC(=O)C1=C(Nc2ccc(C)cc2)CC(C)(O)C(C(C)=O)C1c1ccco1 (stereo unspecified),-8%
CCOC(=O)N1CCN(CC(=O)c2ccc3c(c2)CCN3)CC1,-16%
COc1nc(Cl)nc(Cl)c1Cl (tested in a mixture with another compound),-4%
CCn1c(SCC(=O)N2CCCC2)nc2c(c1=O)SC(C)C2 (stereo unspecified),-11%
COc1ccc(-c2nn(-c3ccccc3)cc2C(=O)Nc2nccs2)cc1OC,u
COc1cccc(/C=C/C(=O)NCCc2ccc(OC)c(OC)c2)c1,u
O=C(/C=C/c1ccc(Cl)c([N+](=O)[O-])c1)Nc1ccc(N2CCCC2)c(Cl)c1,-2%
COc1ccc(OCCCC(=O)NCc2ccco2)cc1,u
CCCCOn1c(C)c(C(=O)OCC)c2c3no[n+]([O-])c3ccc21,-23%
COC(=O)c1ccc(C(=O)NC(=S)Nc2nc3c(s2)CC(C)CC3)cc1 (stereo unspecified),-13%

# Next section, overlapping the part above by seven compounds.
canonical_smiles,HPGD block
CCn1c(SCC(=O)N2CCCC2)nc2c(c1=O)SC(C)C2 (stereo unspecified),-11%
COc1ccc(-c2nn(-c3ccccc3)cc2C(=O)Nc2nccs2)cc1OC,u
COc1cccc(/C=C/C(=O)NCCc2ccc(OC)c(OC)c2)c1,u
O=C(/C=C/c1ccc(Cl)c([N+](=O)[O-])c1)Nc1ccc(N2CCCC2)c(Cl)c1,-2%
COc1ccc(OCCCC(=O)NCc2ccco2)cc1,u
CCCCOn1c(C)c(C(=O)OCC)c2c3no[n+]([O-])c3ccc21,-23%
COC(=O)c1ccc(C(=O)NC(=S)Nc2nc3c(s2)CC(C)CC3)cc1 (stereo unspecified),-13%
CS(=O)(=O)N(CC(=O)NCc1ccco1)c1ccc(Cl)c(C(F)(F)F)c1,-6%
COc1ccc(OC)c(S(=O)(=O)N2CCCCCC2)c1,1%
Cc1ccc(S(=O)(=O)N2CCCC2C(=O)NC2=NCCS2)cc1 (stereo unspecified),-3%
Cc1nn(-c2ccccc2)c(C)c1C(=O)NCc1cccs1,u
O=C(Nc1ccn(Cc2ccccc2F)n1)c1ccc(COc2cc(Cl)ccc2Cl)o1,194%[activator]
O=C(Nc1nc2c(ccc3ccccc32)s1)c1ccco1,-22%
COC(=O)C1C(=O)C=C(Nc2ccc(F)cc2F)CC1c1ccccc1 (stereo unspecified),-9%
CC1(OC(=O)C2CCCC2)C(=O)C=C2C=C(c3ccsc3)N(CCCCO)C=C2C1=O (stereo unspecified),-7%
Cc1ccc(OCCOCCOc2cccc3cccnc23)c(Br)c1,-19%
COc1ccc(-c2nnc3ccc(SCC(=O)NCC4CCCO4)nn23)cc1 (stereo unspecified),-4%
COc1ccc2ncc(S(=O)(=O)c3ccccc3)c(N3CCN(c4ccccc4)CC3)c2c1,u
COc1cc(C2C(C(=O)Nc3ccc(F)cc3)=C(C)Nc3nc(CCCO)nn32)cc(OC)c1OC (stereo unspecified),3%
CCCCOP(=O)(OCCCC)C(O)c1ccc(Br)cc1 (stereo unspecified),-2%
COc1ccc(NS(=O)(=O)c2ccc(OC)c(NC(=O)CCC3CCCCC3)c2)cc1,-16%
